From PubChem
MARV entry inh = qHTS for inhibitors of binding or entry into cells for Marburg Virus. Marburg virus pseudotyped entry inhibition, cell reporter; control for the full effect not named in the record; about a third of the inactives were read at about 46 µM. Potency, µM (titrated, usually from 37.8 µM), inactives show top-dose activity change, negative = inhibition, hits mostly inhibitors. 1.8% of 300,000 active. AID 540276, 2011; active = well fitted inhibition curve with a large enough effect; inconclusive = small, poorly fitted or top-dose-only effect, or effect the other way; inactive = flat fitted curve, though single readings scatter; tested in HEK293 cells; about a fifth of its hits are not listed in these tables; also: % is scaled to controls: 0 for no effect and ±100 for the full control effect; luciferase read-out
2A StopGo = High Throughput Screening for Foot and Mouth Disease Virus Antivirals; human cells with a luciferase reporter of 2A StopGo recoding; control for the full effect not named in the record; Potency, µM (top dose mostly 57.9 µM), for inactives: at the highest dose signal change, negative = less light; 1.2% of 410,000 active; AID 1159524, 2015; active = well fitted falling curve with a large enough effect; inconclusive = small, poorly fitted or top-dose-only effect; inactive = no such curve, though single readings can be large or run the other way; tested in HEK293T cells; also: % is scaled to controls: 0 for no effect and ±100 for the full control effect; nearly all actives have a fitted effect of over 45% in size; luciferase light after 4 h
Cruzain inh noDet = qHTS Assay for Promiscuous and Specific Inhibitors of Cruzain (without detergent) | Cruzipain (Trypanosoma cruzi), P25779 | purified cruzain, Z-FR-AMC fluorescence, no detergent | Potency, µM, for inactives: max response, negative = inhibition, hits mostly inhibitors | 2.3% of 200,000 active; active = well fitted curve in the direction sought with a large enough effect; inconclusive = small, poorly fitted or top-dose-only effect, or another doubt; inactive = no such curve, though single readings can be large; an effect the other way counts as inactive or inconclusive;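 also: plate controls were enzyme without inhibitor for no effect and buffer without enzyme for full effect; nearly all actives have a fitted effect of over 40% in size; top concentration of the series not given in the record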
Target sequence (P25779 123-467 limits assumed): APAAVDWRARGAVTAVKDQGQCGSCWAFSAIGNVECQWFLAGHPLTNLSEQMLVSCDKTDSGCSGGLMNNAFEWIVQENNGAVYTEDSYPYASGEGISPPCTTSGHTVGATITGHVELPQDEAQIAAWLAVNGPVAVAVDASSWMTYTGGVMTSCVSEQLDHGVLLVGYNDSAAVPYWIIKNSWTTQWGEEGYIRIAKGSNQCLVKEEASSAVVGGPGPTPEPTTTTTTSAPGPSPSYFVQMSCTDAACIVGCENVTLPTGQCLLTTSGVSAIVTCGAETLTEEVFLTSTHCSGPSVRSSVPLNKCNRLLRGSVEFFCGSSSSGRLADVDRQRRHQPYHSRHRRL
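Detergent-free condition (0.00005% Triton X-100) in acetate buffer pH 5.5 with DTT. 1.5 nM enzyme and compound were pre-mixed 15 min, then 2 uM Z-FR-AMC substrate added; reaction progress from fluorescence change between first and third reads (60 s).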
Lassa entry inh = qHTS for Inhibitors of binding or entry into cells for Lassa Virus; Lassa virus pseudotype entry inhibition, cell reporter; control for the full effect not named in the record; Potency, µM (highest dose often 37.9 µM), inactives show at the top dose activity change, negative = inhibition, hits mostly inhibitors; 1.2% of 300,000 active; active means well fitted inhibition curve with a large enough effect; inconclusive means small, poorly fitted or top-dose-only effect, or effect the other way; inactive means flat fitted curve, though single readings scatter; tested in HEK293 cells; also: % is scaled to controls: 0 for no effect and ±100 for the full control effect; nearly all actives have a fitted effect of over 50% in size; luciferase read-out
RE007 growth inh = qHTS Assay for Inhibitors of the HIV-1 protein Vpr | S. pombe RE007 Vpr strain, BacTiter-Glo ATP luminescence, 24 h; control for the full effect not named in the record | Potency, µM (top dose mostly 92.2 µM), without a hit: at the top dose activity change, negative = less growth | 0.21% of 360,000 active | AID 651644, 2012; active = well fitted falling curve with a large enough effect; inconclusive = small, poorly fitted or top-dose-only effect; inactive = no such curve, though single readings can be large or run the other way;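 also: % is scaled to controls: 0 for no effect and ±100 for the full control effect; nearly all actives have a fitted effect of over 50% in size; the assay follows cell death caused by Vpr and the record does not say whether a fall means rescue or toxicity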
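Fission yeast strain RE007, carrying one chromosomally integrated HIV-1 vpr copy, was seeded at OD 0.01 in PMG+AL medium with 23 nL pinned compound. After 24 h at 30 °C and 99% humidity, viability was read by BacTiter-Glo luminescence.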
NS1 function inh = qHTS Assay for Inhibitors of Influenza NS1 Protein Function; S. cerevisiae slowed by influenza A NS1, growth recovery by OD600; Potency, µM (highest dose often 46.1 µM), for the others: top-dose activity, positive = more growth; 0.4% of 270,000 active; AID 2326, 2010; also: actives are rising curves; nearly all actives have a fitted effect of over 50% in size
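In this qHTS, NS1 from influenza A is expressed in budding yeast, where it slows growth. Cells are switched from glucose to 2% galactose medium (pH 6.0, -URA), treated with compound, and growth recovery is read at OD600.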
SARS PLpro yeast = qHTS of Yeast-based Assay for SARS-CoV PLP. Potency, µM (series often up to 32.9 µM), for the others: at the top dose activity, positive = growth rescue. 0.19% of 330,000 active. S. cerevisiae expressing SARS-CoV PLpro, growth rescue; control for the full effect not named in the record; also: 0% is about no effect; nearly all actives have a fitted effect of over 55% in size; growth read by luminescence after 48 h
Cruzain Triton = qHTS Assay for Promiscuous and Specific Inhibitors of Cruzain (with detergent); Cruzipain (Trypanosoma cruzi), P25779; 0.43% of 200,000 active; Potency, µM, inactives show max response, negative = inhibition, actives largely listed as inhibitors; purified cruzain, Z-FR-AMC fluorescence, 0.01% Triton; active = well fitted curve in the direction sought with a large enough effect; inconclusive = small, poorly fitted or top-dose-only effect, or another doubt; inactive = no such curve, though single readings can be large; an effect the other way counts as inactive or inconclusive;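 also: plate controls were neutral wells for no effect and buffer without enzyme for full effect; nearly all actives have a fitted effect of over 40% in size; top concentration of the series not given in the record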
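Cruzain (1.5 nM) preincubated 15 min at RT with compound in 100 mM sodium acetate pH 5.5, 5 mM DTT, 0.01% Triton X-100. Reaction started with 2 uM Z-FR-AMC; AMC fluorescence (ex 360/em 450 nm) change over 60 s gave rate.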
Active calls of the source: *; ? = inconclusive; · = no result given; [ ] = dose if it differs, or a comment. Unless noted, calls follow the shape of the dose curve; as a rule, active means well fitted rising curve with a large enough effect; inconclusive means small, poorly fitted or top-dose-only effect; inactive means no such curve, though single readings can be large or run the other way. Potency is read from the fitted curve at half-maximal effect.

canonical_smiles	MARV entry inh	2A StopGo	Cruzain inh noDet	Lassa entry inh	RE007 growth inh	NS1 function inh	SARS PLpro yeast	Cruzain Triton
CCc1cc(C(=O)OC)c(NC(=O)CN2CCN(C(=O)c3ccco3)CC2)s1	-18%	?	·	?	22%	5%	1%	·
COC(=O)c1cc(=O)n(Cc2ccc(F)cc2)c(=Nc2ccccc2)s1	·	?	·	·	11%	-3%	2%	·
Cn1cc(S(=O)(=O)N2CCc3ccccc32)cc1C(=O)Nc1ccc(C(F)(F)F)cc1	·	-26%	-1%	9%[46.1 µM]	·	·	·	-2.8%
CCOC(=O)c1sc(NC(=O)C(C)Sc2nnc(N)s2)nc1C (stereo not drawn)	26%	16%	·	-6%	1%	5%	1%	·
Cc1cc(N2CCCC2=O)c(N)cc1N	0%	17%	-4%	2%	1%	-10%	1%	1.9%
COc1ccc(C(=O)/C=C/c2ccc(N3CCCCC3)c([N+](=O)[O-])c2)c(OC)c1	4%	?	0%	?	-2%	11%	0%	-6.5%
Cc1ccc(-c2nc(C(=O)NCC3CCCO3)cc3c2[nH]c2ccccc23)cc1 (stereo not drawn)	·	?	·	·	0%	-18%	-12%	·
Cc1ccc(/C(N)=N/OC(=O)Cc2cccc3ccccc23)cc1	?	-3%	·	?	1%	·	-1%	·
O=C(CN1CCN(C(=O)c2cccs2)CC1)Nc1ccc(Br)cc1	-1%	?	3%	?	-6%	6%	-5%	1.5%
O=C(Cn1c(=O)n(-c2cccc(Cl)c2)c(=O)c2sc3ccccc3c21)N1CCCC1	-3%[46.1 µM]	-6%	8%	-19%[46.1 µM]	·	·	·	-11%
N#CC1(NC(=O)COC(=O)c2ccccc2[N+](=O)[O-])CCCCC1	?	21%	·	11%	-2%	·	2%	·
NC(=O)c1cc([N+](=O)[O-])ccc1NCc1cccnc1	3%[46.1 µM]	12%	·	-12%	13%	·	0%	·
COCCCNC(=O)C1CCN(c2nc(C)cc(C)n2)CC1	23%	-18%	-9%	6%	-9%	1%	-6%	3.5%
CCNC(=O)C1CC(=O)N(Cc2ccc3c(c2)OCO3)C(=Nc2ccc(OCC)cc2)S1 (stereo not drawn)	-13%	-15%	7%	?	2%	-35%	-5%	1.9%
Cc1cc(NCCCN2CCOCC2)n2c(nc3ccccc32)c1C#N	?	-18%	-4%	0%	17%	3%	-1%	?
O=C(Nc1ccc(Cl)cc1C(F)(F)F)C(Sc1nnc(-c2cccs2)o1)c1ccccc1 (stereo not drawn)	?	?	?	3%	12%	25%	-7%	-2.2%
CCCN(CC(=O)Nc1ccc(Cl)cc1Cl)C(=O)/C=C/c1cccc([N+](=O)[O-])c1	?	?	?	1%	-17%	18%	-1%	-4.1%
COc1cc(NC(=O)CSc2nc3c(c(=O)n(C)c(=O)n3C)n2C)cc(OC)c1	-4%[46.1 µM]	0%	·	·	19%	3%	-1%	·
Cc1c(OCc2ccccc2)cccc1OCc1ccccc1	39%	37%[activator]	-3%	-3%	13%	-9%	1%	-1.2%
COc1ccc(CNC(=O)C2CCN(C(=O)c3ccc(-n4ccc5ccccc54)s3)CC2)cc1	·	?	?	?	·	·	·	-2.9%
O=C(c1cccc(-c2nnc(-c3ccccc3)o2)c1)N1CCCCC1	9%	43%[activator]	7%	-14%	17%	-34%	-3%	3.4%
COc1ccc(CC(=O)NNc2ncnc3c2cnn3-c2ccc(C)cc2)cc1	5%	-1%	1%	-20%	-6%	5%	1%	-1.4%
Cc1ccc(C)c(OCCC(=O)OCC(=O)NC2CCCC2)c1	11%	-12%	·	16%	-15%	·	-3%	·
CC(=O)Nc1ccc(/C=C/c2nc3ccccc3[nH]c2=O)cc1	12%[46.1 µM]	32%[activator]	·	?	2%	4%	0%	·
Cc1cc(/C=C2/NC(=O)NC2=O)c(C)n1-c1ccc(C#N)cc1	4%[46.1 µM]	-7%	·	-16%	6%	·	1%	·
CN(C)CCNC(=O)Nc1ccc(F)cc1F	?	-11%	·	22%[46.1 µM]	2%	5%	2%	·
Cc1ccc(NC(=O)CSc2[nH]c(=O)ncc2C)cc1	·	30%[activator]	0%	26%[46.1 µM]	·	·	·	0.5%
CCc1ccccc1NC(=O)c1cnn(-c2ccccc2)c1C	?	32%[activator]	·	?	25%	-27%	-16%	·
CN(C)S(=O)(=O)c1ccc(C(=O)NCC2CC2(Cl)Cl)cc1 (stereo not drawn)	?	45%[activator]	·	?	-3%	-5%	-1%	·
Cn1c(=O)c2c(-c3cccc(Br)c3)n(C(C)(C)CO)cc2n(C)c1=O	6%[46.1 µM]	-20%	-10%	0%[46.1 µM]	·	·	·	-2.4%

Two entries from above, with two lines to a compound:
Values run as follows: MARV entry inh | 2A StopGo | Cruzain inh noDet | Lassa entry inh | RE007 growth inh | NS1 function inh | SARS PLpro yeast | Cruzain Triton
COc1ccc(CNC(=O)C2CCN(C(=O)c3ccc(-n4ccc5ccccc54)s3)CC2)cc1
→ · | ? | ? | ? | · | · | · | -2.9%
O=C(c1cccc(-c2nnc(-c3ccccc3)o2)c1)N1CCCCC1
→ 9% | 43%[activator] | 7% | -14% | 17% | -34% | -3% | 3.4%

Carrying on:
canonical_smiles	MARV entry inh	2A StopGo	Cruzain inh noDet	Lassa entry inh	RE007 growth inh	NS1 function inh	SARS PLpro yeast	Cruzain Triton
COc1cccc(C(=O)NCC(=O)N/N=C(C)\C=C\c2ccccc2)c1	-11%[46.1 µM]	-18%	·	-1%	2%	·	0%	·
C=CCOc1ccc(CNCc2cccnc2)cc1	-8%	11%	·	?	1%	10%	0%	·
COc1ccc(NC(=O)CSc2n[nH]c(-c3ccco3)n2)cc1	·	13%	·	·	2%	0%	0%	·
CN(C)Cc1ccccc1CCc1ccccc1	-20%[46.1 µM]	1%	·	-12%	5%	·	·	·
COc1ccc(NC(=O)NCc2cccn2Cc2ccc(F)cc2)cc1OC	-4%[46.1 µM]	-23%	-8%	-3%[46.1 µM]	·	·	·	-0.3%
Cc1cccc(NC(=O)CN(C)S(=O)(=O)c2ccc3c(c2)c(=O)n(C)c(=O)n3C)c1C	-17%[46.1 µM]	-23%	0%	30%[46.1 µM]	·	·	·	1.5%
Cc1ccc(C)c(S(=O)(=O)NCCc2csc(-c3ccc(Cl)cc3)n2)c1	·	25%	0%	-12%[46.1 µM]	·	·	·	-9.8%
CCOC(=O)C(=CNc1cccc(C)n1)C(=O)OCC	-21%	5%	-1%	-27%	5%	-28%	-13%	-5.7%
Cc1cc(C)c(C)c(C(=O)c2ccccc2C(=O)O)c1C	·	-21%	·	·	6%	4%	1%	·
Cc1c(C(=O)Nc2cccc(-c3nnc4n3CCCCC4)c2)oc2ccccc12	?	-23%	?	-27%	10%	-11%	6%	-7.8%
O=C(Nc1ccc2oc(=O)ccc2c1)c1ccc(-c2cccc([N+](=O)[O-])c2)o1	?	32µM*	·	?	-1%	4%	-1%	·
CC(CC(=O)N1CCN(c2ccccc2)CC1)S(=O)(=O)c1ccc2c(c1)NC(=O)CO2 (stereo not drawn)	?	?	·	?	-2%	2%	-2%	·
O=C1NC(CCc2ccccc2)C(=O)N1Cc1cccc2ccccc12 (stereo not drawn)	·	-18%	-26%	·	6%	-17%	-36%	-12%
COc1ccc(/C=N/NC(=O)c2ccccc2NC(=O)c2ccco2)c(OC)c1	?	-1%	·	11%	22%	-7%	0%	·
Cc1cc(=O)[nH]c(Nc2ccc(Cl)cc2)n1	·	-9%	·	·	3%	-15%	3%	·
CCOC(=O)CNc1c(-c2ccc(O)cc2)nc2ccc(Cl)cn12	11%	14%	-5%	-23%	-19%	-12%	6%	-8.3%
CC12CCC(c3c(C(=O)N4CCOCC4)nn(-c4ccccc4)c31)C2(C)C (stereo not drawn)	-14%[46.1 µM]	-5%	·	2%	-11%	·	2%	·
CC(C)NC(=O)c1ccccc1NC(=O)c1ccccc1N(C)S(C)(=O)=O	25%	12%	9%	2%	4%	11%	2%	0.7%
CCCCC(=O)Nc1ccccc1C(=O)OCC(=O)c1ccc2c(c1)OCCO2	-12%	?	-10%	?	9%	8%	?	-7.9%
N#Cc1nc(-c2cccc3ccccc23)oc1NCC1CCCO1 (stereo not drawn)	16%	7%	·	0%	-8%	-4%	-2%	·
CC1=Nn2c(nnc2-c2ccccc2)SC1	2%	-7%	8%	9%	2%	-1%	2%	4.3%
Cn1cc(CNCc2ccc(OC(F)(F)F)cc2)c(-c2ccc3c(c2)OCCO3)n1	·	?	·	·	0%	7%	0%	·

Complete entries, quoted from the list.
Cc1ccc(NC(=O)CSc2[nH]c(=O)ncc2C)cc1 reads MARV entry inh = ·; 2A StopGo = 30%[activator]; Cruzain inh noDet = 0%; Lassa entry inh = 26%[46.1 µM]; RE007 growth inh = ·; NS1 function inh = ·; SARS PLpro yeast = ·; Cruzain Triton = 0.5%
CCOC(=O)C(=CNc1cccc(C)n1)C(=O)OCC reads MARV entry inh = -21%; 2A StopGo = 5%; Cruzain inh noDet = -1%; Lassa entry inh = -27%; RE007 growth inh = 5%; NS1 function inh = -28%; SARS PLpro yeast = -13%; Cruzain Triton = -5.7%
